Bfl-1 A1 inh = inhibitors of the anti-apoptotic protein A1, read as caspase activation; actives 0.066% (n = 330,000); AID 2462; MEF A1-2A-BIM cells, Caspase-Glo 3/7 luminescence, 3 h; percent of clofoctol response, vehicle zero; caspase activation, % (test concentration not listed);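 active = over half of replicate activation scores above 10%, or exactly half above 10 with the replicate mean above 10; inconclusive = replicate mean below 10 yet half the replicates above 10; inactive = over half of replicates below 10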;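 also: wells of about 30 µL received 50 nL stock; many hits fall short of the cut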
T cruzi inh = T. cruzi replication inhibition | AID 1885 | T. cruzi beta-gal in NIH3T3, luminescence, 90 h | inhibition, % (test concentration not listed) | actives 1.4% (n = 300,000);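 active = mean inhibition across valid replicates above about 55%, limit read from the data; inconclusive = mean below that limit but half or more replicates reach it; inactive = mean below it, under half of replicates reach it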;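 also: signal also drops with host cell toxicity which is not excluded here; 0% = plate median of DMSO wells and 100% = zero luminescence signal; higher percent means less beta-gal luminescence so fewer parasites; stock transfer was 50 nL into about 50 µL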
AF4-AF9 inh = MLL-AF4/AF9 protein interaction inhibition | P42568 | AlphaScreen, biotin-AF4 peptide binding to FLAG-AF9 | inhibition, % at 10 µM | actives 0.47% (n = 350,000) | AID 651704;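 active = every replicate reaching a set inhibition limit, whatever the replicate mean, cut at about 25% in these data; inconclusive = mean inhibition reaches that limit but some replicates miss it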;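 also: 0% = plate neutral control median and 100% = total signal loss; the record names both 10 and 1 µM as test concentration; the first replicate is given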
Target sequence (P42568 whole entry, looked up): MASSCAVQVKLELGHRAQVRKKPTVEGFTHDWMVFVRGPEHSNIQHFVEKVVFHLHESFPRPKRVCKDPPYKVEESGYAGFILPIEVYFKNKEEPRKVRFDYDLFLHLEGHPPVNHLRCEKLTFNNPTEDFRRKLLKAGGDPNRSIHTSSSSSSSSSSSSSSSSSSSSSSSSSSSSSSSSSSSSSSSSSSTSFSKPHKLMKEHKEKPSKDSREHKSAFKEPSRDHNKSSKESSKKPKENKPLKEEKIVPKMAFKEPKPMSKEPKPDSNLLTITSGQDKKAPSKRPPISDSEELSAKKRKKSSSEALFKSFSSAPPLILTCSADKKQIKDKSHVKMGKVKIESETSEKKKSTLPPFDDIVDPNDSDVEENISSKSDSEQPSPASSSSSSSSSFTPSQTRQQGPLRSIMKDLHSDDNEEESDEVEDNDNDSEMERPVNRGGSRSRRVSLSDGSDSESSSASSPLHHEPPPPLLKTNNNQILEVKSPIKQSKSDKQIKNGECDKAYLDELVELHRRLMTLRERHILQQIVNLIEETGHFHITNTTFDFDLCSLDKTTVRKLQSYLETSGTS
Calb FLC = affects C. albicans growth with fluconazole; growth inhibition, % (no concentration beside the values); C. albicans CaCi-2 (fluconazole-resistant clinical isolate) + fluconazole, Alamar Blue growth, 48 h; actives 0.57% (n = 300,000);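 active = most replicates above 75%; inconclusive = exactly half above 75%; inactive = most below 75%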;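 also: all wells also contain fluconazole at 8 µg/ml as a sub-toxic cotreatment; 0% = median of DMSO wells and 100% = median of geldanamycin control wells; wells of about 8 µL received 7.5 nL stock; the first replicate is given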
Vif A3G = inhibitors of Vif binding to APOBEC3G peptide, primary screen, biochemical, TR-FRET, GST-Vif 1-94, biotin-A3G peptide, dose response retest (AID 1117319) | TR-FRET GST-Vif / biotin-A3G peptide binding; higher % means a stronger effect; test concentration not given here; strong numbers were not always called active | inhibition, %; hits with a dose series show IC50 in µM | actives 0.57% (n = 260,000);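 active = above the screen mean plus three standard deviations and confirmed in dose response; inconclusive = results disagree or hit not tested in dose response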;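 also: Vif residues 1-94 fused to GST binding biotinylated APOBEC3G peptide 110-148; 0% = full assay without inhibitor and 100% = GST in place of GST-Vif; retest series ran down from 100 µM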
Ecoli rRNA inh = selective bacterial rRNA inhibition in E. coli; E. coli WT GFP vs humanized-ribosome RFP mutants, fluorescence, 24 h; stronger effect = lower value; DMSO median 0, no signal -100; GFP signal change (wild-type ribosome), % (no concentration beside the values); actives 1.6% (n = 350,000); AID 720706;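 active = significant combined selectivity score with lowered wild-type GFP, culture density cut under 30%, mutant RFP and density less affected; inactive = any of these conditions unmet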; also: one replicate is shown; some compounds called inactive have numbers as strong as hits
RanGTP-Impb inh = disruptors of Ran-importin-beta complex formation – biochemical, FRET, CFP-Ran, YFP-importin-beta, homogeneous, primary screen. cell-free CFP-Ran/YFP-importin-beta FRET ratio. inhibition, % (test concentration not listed). actives 1.1% (n = 300,000). AID 2216;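 active = most replicates above 15%; inconclusive = exactly half above 15%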;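 also: 0% = DMSO wells and 100% = Ran loaded with GDP instead of GTP; wells of about 40 µL received 100 nL stock; the first replicate is given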
Beta cell apopt = beta cell apoptosis inhibition; INS-1E cytokine-induced death, ATP luminescence, 48 h; percent of positive-control rescue, neutral wells zero; protection from apoptosis, % (concentration not given with the values); actives 0.8% (n = 300,000); AID 435005;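 active = all replicates at 75% or more, or half of them and the mean; inconclusive = half reach 75% but not the mean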;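 also: 0% = cytokine-treated negative control wells and 100% = positive control rescue; higher means more ATP so stronger rescue from cytokine killing; wells of about 40 µL received 100 nL stock; the first replicate is given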
Ecoli rRNA inh OD600 = second read-out of Ecoli rRNA inh, no call of its own (marks repeat the call); OD600 change, %; measured here: OD600 growth;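 optical density of the mix in the first replicate; 0 = DMSO median and -100 = no signal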
Ecoli rRNA inh RFP = further read-out of Ecoli rRNA inh, marked with its call; RFP signal change, %; measured here: RFP humanized mutant strains;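 first replicate; 0 = DMSO median and -100 = no signal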
Active calls of the source: *; ? = inconclusive; nt = not tested or not shown.

SMILES	Bfl-1 A1 inh	T cruzi inh	AF4-AF9 inh	Calb FLC	Vif A3G	Ecoli rRNA inh	Ecoli rRNA inh OD600	Ecoli rRNA inh RFP	RanGTP-Impb inh	Beta cell apopt
C=CC1=C(C(=O)O)N2C(=O)[C@@H](NC(=O)/C(=N/OCC(=O)O)c3csc(N)n3)[C@H]2SC1	0.5	-7	-2.5	nt	nt	nt	nt	nt	2.5	1
N/C(=N\OS(=O)(=O)c1ccccc1)c1ccccn1	0.2	-17	nt	-15	?	nt	nt	nt	-3.0	-6
O=C(OCC(=O)N1CCCc2ccccc21)c1ccccc1NCCO	2.1	-4	-48	8	nt	-3	-2	-1.2	-2.6	-3
COc1cccc(C(=O)c2c[nH]c(C(=O)NCc3cccs3)c2)c1	0.4	21	nt	22	9%	nt	nt	nt	-3.7	-4
COc1ccc(-c2cc(C(=O)N3CCC3)c3ccccc3n2)cc1OC	0.2	31	-7.6	5	-15%	-1	-4	-0.4	0.1	3
O=C(O)c1[nH]c2ccc(Cl)cc2c1CCN1C(=O)c2ccccc2C1=O	-1.0	-2	-4.1	-4	5%	-37	-53	-24	-1.4	-7
O=C(Nc1nc2ccsc2c(=O)s1)c1ccco1	-4.6	11	-5.5	0	nt	nt	nt	nt	3.6	1
CC1C2CC(C(CN(C)C)/C2=N/O)C1(C)C (stereo unspecified)	-0.3	-16	nt	7	2%	nt	nt	nt	-2.2	-3
Cc1nc2ccccn2c1CN(C)C(=O)C1CCC(=O)N(Cc2cccc(F)c2)C1 (stereo unspecified)	-0.7	-5	-2.0	-1	-1%	-1	11	0.6	0.4	-10
Cn1c(Cc2ccc(Cl)cc2)nnc1SCC(=O)NC1CC1	0.0	-6	-1.0	-5	nt	11	12	-3.7	2.8	1
Cc1c(C(=O)N(Cc2ccccc2Cl)C2CCS(=O)(=O)C2)oc2ccccc12 (stereo unspecified)	nt	22	0.5	19	nt	1	-17	-6.0	0.4	-11
CC(=O)Nc1c(C)nn(-c2ccc([N+](=O)[O-])cc2)c1C	-0.5	9	0.2	-15	-12%	16	12	2.7	1.4	-5
Cc1cc(C)n(C(=O)C23CC4CC(CC(C4)C2)C3)n1	1.1	-5	nt	-7	-3%	nt	nt	nt	-0.9	nt
COc1ccc(C2CC(c3ccc([N+](=O)[O-])cc3)=NN2C(=O)c2ccccc2)cc1OC (stereo unspecified)	0.3	29	1.8	0	1%	14	4	-2.0	?	4
COc1ccc(/C=C2\CCn3c2nc2ccccc2c3=O)cc1OC	-6.8	4	nt	-7	3%	nt	nt	nt	-2.2	nt
CCC(NC(=O)c1ccccc1NC(=O)c1ccccc1)C(=O)OC (stereo unspecified)	0.7	6	0.8	-27	8%	0	8	1.8	3.7	-7
COc1ccc(C(CNC(=O)c2cc3ccccc3cc2O)N2CCOCC2)cc1 (stereo unspecified)	0.3	6	3.1	-5	-1%	-12	-19	11	2.2	6
CCOc1ccc(C2CC(c3cccc(C)c3)n3nc(N)nc3N2)cc1 (stereo unspecified)	1.1	25	2.4	2	-2%	4	6	1.6	-0.4	-8
CSC(SC)=C(C(C)=O)C(=O)c1ccc(C)cc1	-0.4	-14	-12	?	0%	1	4	-8.3	1.5	-8
CCc1ccc(NC(=O)CCCNC(=O)Cn2cnc3sc(C)c(C)c3c2=O)cc1	-0.1	-6	-7.7	-3	nt	9	13	1.1	?	5

Quoted from the listing.
Reading of COc1ccc(/C=C2\CCn3c2nc2ccccc2c3=O)cc1OC in Bfl-1 A1 inh: -6.8
Reading of CCOc1ccc(C2CC(c3cccc(C)c3)n3nc(N)nc3N2)cc1 (stereo unspecified) in Ecoli rRNA inh OD600: 6

Remaining list, next part
SMILES	Bfl-1 A1 inh	T cruzi inh	AF4-AF9 inh	Calb FLC	Vif A3G	Ecoli rRNA inh	Ecoli rRNA inh OD600	Ecoli rRNA inh RFP	RanGTP-Impb inh	Beta cell apopt
CC(=O)N(C(C)=O)c1c(N2CCOCC2)c2ccccc2oc1=O	0.3	-6	0.8	22	-7%	14	17	-5.4	?	-5
O=C(COC(=O)c1ccccc1Br)NC(=O)NCc1ccccc1	-0.5	nt	-1.2	nt	nt	-1	-25	-0.1	nt	-4
N=c1n(CCc2ccccc2)c2ccccc2n1Cc1ccccc1F	2.9	4	nt	-11	14%	nt	nt	nt	-0.1	26
COc1ccc(N(CC(=O)N2CCc3ccccc32)S(=O)(=O)c2c(C)nn(C)c2C)cc1	0.8	-5	2.0	-2	1%	1	0	-4.5	-0.6	1
Cc1ccc(S(=O)(=O)Nc2nc(C)cc(NCCN)n2)cc1	0.2	7	5.3	6	0%	13	8	-11	4.9	-4
O=C(NC(N1CCOCC1)C(Cl)(Cl)Cl)c1ccc(F)cc1 (stereo unspecified)	-0.1	-3	1.0	-4	-6%	3	4	-1.9	?	-5
Cc1cc(C)c(C(=O)C(C)OC(=O)c2ccccn2)cc1C (stereo unspecified)	0.0	-6	-2.7	1	-2%	13	9	1.7	1.5	-5
O=C(NCCSCc1ccco1)Nc1ccccc1	-1.7	-5	1.8	1	?	5	1	0.1	2.5	-5
COc1ccccc1C(=O)NCC(=O)n1nc(C)cc1C	-1.5	1	nt	1	0%	nt	nt	nt	2.4	1
c1ccc(-n2cnc3ccccc32)cc1	0.6	-18	-3.9	-5	1%	9	0	-1.6	-1.3	-6
CCOc1cc(/C=N/n2cnnc2)ccc1O	0.0	-22	1.4	?	1%	10	2	0.2	-2.9	1
COc1cccc(C(=O)c2c[nH]c(C(=O)NCCCN3CCOCC3)c2)c1	0.3	-1	-0.2	-17	-5%	7	2	-1.4	3.9	-1
CCc1nc2c(c(=O)[nH]1)C(CC)(CC)Cc1ccccc1-2	-0.2	-3	-8.8	1	nt	12	9	3.4	0.3	2
O=C(CSc1ncnc2c1oc1ccccc12)N1CCN(c2ccccc2)CC1	1.0	16	nt	31	-16%	nt	nt	nt	-4.3	-1
CCCN(CC(=O)Nc1ccccc1OC)C(=O)c1cc2ccccc2o1	-0.1	0	2.6	-1	-12%	-19	-11	-1.9	2.2	-4
COc1ccc(NC(=O)c2cccc(C(=O)Nc3ccc(OC)cc3)n2)cc1	-0.7	-4	-3.0	-6	5%	20	10	0.1	3.7	-16
COc1ccccc1-n1c(C)nc2cc(C(=O)O)ccc21	-0.2	-22	8.7	0	7%	3	-1	9.8	-1.1	-1
CCCCOc1ccc(C(=O)NCC(=O)NCCOc2ccccc2)cc1	-2.0	3	-17	0	-2%	1	-1	-3.5	1.3	-3
COCCNC(=O)C(=O)N/N=C(\C)CC(=O)Nc1cccc(C(F)(F)F)c1	0.3	-24	1.6	-3	-4%	-15	-18	4.3	1.1	6
OCCN=C(c1ccccc1)C12CN3CN(CN(C3)C1)C2	-0.4	nt	nt	1	14%	nt	nt	nt	-2.9	-3
CCc1noc(C)c1C(=O)N1CCSC1=Nc1cccc(Cl)c1C	1.2	16	2.1	9	nt	-24	-67	6.9	1.8	3
Cc1ccc(C)c(NCC(=O)c2ccc(Cl)cc2)c1	0.1	-13	2.8	-2	nt	1	8	-0.2	-1.0	0
O=C(NNS(=O)(=O)c1ccccc1)C1CCN(S(=O)(=O)c2ccccc2)CC1	0.2	4	nt	-8	-1%	nt	nt	nt	-6.4	0
CC(/C=N/Nc1ncc(C)c(=O)[nH]1)=C\c1ccccc1	-0.7	-7	nt	53	-5%	nt	nt	nt	7.1	-1
CCOC(=O)c1cccc(NC(=O)C2CCN(c3ncnc4c3nc3n4CCCCC3)CC2)c1	0.0	0	-2.7	-2	nt	-1	6	-1.6	4.1	-3
CCOC(=O)C(C)n1cnc2c(nnn2Cc2ccc(Cl)cc2)c1=O (stereo unspecified)	-0.7	-6	nt	13	8%	nt	nt	nt	?	-2
CN(/C=C/C(=C/C=[N+](C)c1ccccc1)OCCCS(=O)(=O)[O-])c1ccccc1	-0.1	1	0.0	-11	nt	13	8	32	-25	0
N#Cc1ccccc1OCC(=O)NNC(=O)CNC(=O)c1cccc(Br)c1	0.6	nt	-0.3	nt	nt	-1	10	-0.2	nt	-1
COc1ccc(NC(=O)CCc2nc3ccccc3s2)c(OC)c1	0.3	10	1.1	-3	-14%	7	10	10	4.0	0
CC1CCN(c2nnc(-c3cccs3)c3ccccc23)CC1	0.3	28	19	10	nt	-29	-34	-6.1	-5.2	-13
CCOc1cccc(C2/C(=C(/O)c3ccc4c(c3)CC(C)O4)C(=O)C(=O)N2Cc2cccnc2)c1 (stereo unspecified)	0.1	22	2.4	1	0%	-7	3	-2.8	-1.2	-1
CCOc1ccccc1NC(=O)C1C2C=CC(C2)C1C(=O)O (stereo unspecified)	0.3	-14	nt	-1	6%	nt	nt	nt	2.6	-2
COc1ccc(CCNS(=O)(=O)c2ccc3c(c2)OCCO3)cc1	1.0	-8	nt	5	-4%	-20	-20	-6.6	-1.4	-2
N#C/C(=C\c1cn(CCOc2ccccc2)c2ccccc12)C(=O)NCC1CCCO1 (stereo unspecified)	0.2	-10	nt	-1	28%	nt	nt	nt	3.9	-2
CCOC(=O)c1ccc(NC(=O)Nc2ccc(Cl)cn2)cc1	-1.2	16	-6.7	-11	13%	6	8	0.9	2.4	2
CC1(C)CC(NCc2ccncc2)CC(C)(C)N1	0.5	-11	-0.8	-4	-4%	28	17	2.9	-1.2	-3
CC1CCC(=O)N(CCC#N)CC1 (stereo unspecified)	0.7	-10	-3.3	-9	nt	6	0	-3.7	-1.5	-11
Cc1cccc(C)c1OCCOC(=O)c1n[nH]c2ccccc12	-1.3	-12	1.4	5	1%	-52	-75	-15	1.9	10
CCOc1ccc(NS(=O)(=O)c2cc(C(=O)NCCCN3CCOCC3)ccc2C)cc1	2.2	nt	16	nt	11%	7	19	-0.6	nt	-5
CCN(CCCNC(=O)CN(C)S(=O)(=O)c1cccc2nsnc12)c1cccc(C)c1	0.0	-5	nt	-10	10%	nt	nt	nt	-1.0	-5
CCN(C(=O)c1cn(CC)c(=O)c2cc(OC)c(OC)cc12)c1ccccc1C	0.3	2	nt	-5	-8%	nt	nt	nt	-3.0	-4
O=[N+]([O-])c1cc(S(=O)(=O)N2CCCC2)ccc1NN=C1CCCC1	0.3	8	nt	3	3%	nt	nt	nt	?	-1
O=C(Nc1nccs1)c1cccc(NC(=O)C2CC2)c1	0.6	7	nt	5	-1%	nt	nt	nt	-0.1	-4
O=C(NC(=S)N1CCc2ccccc21)C1CCC1	1.1	-4	-0.9	-1	nt	8	2	4.1	2.7	-5
Cc1cc(NS(=O)(=O)c2ccc(NC(=O)C(C(C)C)N3C(=O)c4ccccc4C3=O)cc2)nc(C)n1 (stereo unspecified)	-2.2	1	nt	-28	9%	nt	nt	nt	-0.1	-10

The list is partial, so the mix of outcomes need not match the whole.
